TRPV1 PAM – potentiators of human vanilloid receptor 1 (TRPV1). AID 540277. TRPV1-expressing cells, Fluo-8 calcium influx, capsaicin EC20 potentiation; host cell line not named in the record; control for the full effect not named in the record. hit rate 0.02% among 320,000. Q8NER1. potentiation, % at 8.33 µM; active means potentiation above 80%; inconclusive means 30% to 80%; inactive means below 30%; further: 0% is about no effect
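Cells expressing TRPV1 were dye-loaded with Fluo-8 and read kinetically: 10 s baseline, 3 min after compound (agonist portion), then 2 min after EC20 capsaicin (allosteric enhancer portion). Calcium-bound dye fluorescence at 480/520 nm.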
Sfp inh – Sfp phosphopantetheinyl transferase inhibition; Q9F4F7; Biochemical Sfp PPTase activity, qHTS; Potency, µM, for the others: max response, negative = inhibition, hits mostly inhibitors; hit rate 3.5% among 310,000; active means well fitted inhibition curve with a large enough effect; inconclusive means small, poorly fitted or top-dose-only effect, or another doubt; inactive means no such curve, though single readings can be large or run the other way;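 further: the enzyme is Sfp with the accession as filed and its product quenches rhodamine fluorescence; potency means the concentration at half of the fitted maximal effect; 0% = enzyme reaction without inhibitor and -100% = no enzyme wells; top concentration of the series not given in the record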
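Compounds were incubated with enzyme (final 15 nM) for 15 min at room temperature before substrate addition started the reaction. Fluorescence at 525 nm excitation, 598 nm emission was recorded immediately and after 30 minutes.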
PINK1 modulator – PINK1 expression modulation; PINK1 immunofluorescence, high-content cytometry, 24 h; Potency, µM (top dose mostly 76.6 µM), for inactives: top-dose activation (PINK1 increase), most hits filed as activators; hit rate 0.2% among 410,000; AID 624263; active = well fitted activation curve with a large enough effect; inconclusive = small, poorly fitted or top-dose-only effect; inactive = flat fitted curve, though single readings scatter; cell line not stated here;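 further: potency means the concentration at half of the fitted maximal effect; % of control where 0% means no effect; nearly all actives have a fitted effect of over 65% in size; a mitochondrial uncoupler was the plate control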
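Stable cell line treated 24 h with compounds at 5 concentrations (CCCP controls), then fixed and immunostained for PINK1 plus nuclear and cell stains; PINK1 immunofluorescence quantified by laser-scanning microplate cytometry.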
CtBP-E1A blk – CtBP/E1A binding inhibition; AlphaScreen GST-E1A/His-CtBP binding, 1536-well; hits give low values; control for the full effect not named in the record; activity change, % (test concentration not listed); hit rate 0.49% among 340,000; in the data active means activity change below about -65%; inconclusive means about -30% to -65%; inactive means above about -30%; further: on the % scale 0 is the no-effect control and ±100 the full control effect; compound concentration not given in the record
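Homogeneous bead-based format: GST-tagged E1A captured on glutathione donor beads, His-tagged CtBP on nickel acceptor beads; compounds precede bead addition by 2 h at 37 °C.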
D2 ag – activates the human D2 dopamine receptor; DiscoveRx PathHunter D2 beta-arrestin, luminescence, 90 min; 100% = 57 uM dopamine signal; P14416; activation, % (no concentration beside the values); hit rate 0.084% among 360,000; AID 624465; in the data active = activation above about 40%; inconclusive = about 15% to 40%; inactive = below about 15%; further: compound concentration not given in the record; the text of the record calls up to 30% inactive
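DiscoveRx PathHunter D2 beta-arrestin cells (2,100/well) attached overnight, then compound-stimulated 90 min at 37 C in HBSS/10 mM HEPES/0.1% Tween-20 buffer; beta-galactosidase complementation read by luminescence after 1 h at ambient temperature. Dopamine 57 uM final (EC100) as control.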
Six1-Eya2 blk – Six1/Eya2 interaction inhibition. AlphaScreen GST-Six1/His-Eya2 binding, biochemical; hits give low values; control for the full effect not named in the record. AID 651725. Q15475+O00167. activity change, % (test concentration not listed). hit rate 0.56% among 360,000; in the data active = activity change below about -65%; inconclusive = about -30% to -65%; inactive = above about -30%; further: on the % scale 0 is the no-effect control and ±100 the full control effect; compound concentration not given in the record
Target sequence (O00167 whole entry, looked up): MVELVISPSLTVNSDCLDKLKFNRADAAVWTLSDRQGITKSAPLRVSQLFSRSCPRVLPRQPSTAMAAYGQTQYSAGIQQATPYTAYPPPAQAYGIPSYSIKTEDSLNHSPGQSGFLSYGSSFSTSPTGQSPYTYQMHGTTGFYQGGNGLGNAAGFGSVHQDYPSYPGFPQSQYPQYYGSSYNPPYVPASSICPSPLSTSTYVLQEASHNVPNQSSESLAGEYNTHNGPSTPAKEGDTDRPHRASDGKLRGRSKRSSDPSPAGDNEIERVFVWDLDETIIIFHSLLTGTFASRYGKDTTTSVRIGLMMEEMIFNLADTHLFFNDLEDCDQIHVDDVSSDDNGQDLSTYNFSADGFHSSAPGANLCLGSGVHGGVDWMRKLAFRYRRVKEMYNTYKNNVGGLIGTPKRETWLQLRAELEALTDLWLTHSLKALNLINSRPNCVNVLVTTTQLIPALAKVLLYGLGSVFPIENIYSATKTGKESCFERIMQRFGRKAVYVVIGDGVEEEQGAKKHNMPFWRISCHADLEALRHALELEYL
Target sequence (Q15475 whole entry, looked up): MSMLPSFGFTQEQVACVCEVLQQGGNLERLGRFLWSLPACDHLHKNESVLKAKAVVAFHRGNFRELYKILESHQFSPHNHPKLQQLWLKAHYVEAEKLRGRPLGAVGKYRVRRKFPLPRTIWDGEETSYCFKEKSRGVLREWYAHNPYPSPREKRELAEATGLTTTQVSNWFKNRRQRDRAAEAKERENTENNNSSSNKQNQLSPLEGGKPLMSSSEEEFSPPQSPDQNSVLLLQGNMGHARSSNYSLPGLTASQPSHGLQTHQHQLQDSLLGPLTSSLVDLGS
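Homogeneous AlphaScreen proximity assay pairing GST-Six1 with His-tagged Eya2 (added as 5X mix: 250 nM and 500 nM) in 50 mM Tris pH 8.0, 300 mM NaCl, 1 mM TCEP. Glutathione donor and nickel acceptor beads; 1 h, 37 °C, dark.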
D2 PAM – potentiates the human D2 dopamine receptor allosterically. P14416. potentiation, % (no concentration beside the values). DiscoveRx D2 beta-arrestin cells, luminescence, 90 min; 100% = 57 uM dopamine signal. hit rate 0.23% among 360,000. AID 624464; active = potentiation of 50% or more; inconclusive = 30% to 50%; inactive = 30% or less;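 further: compound concentration not given in the record; tested on top of an EC20 dose of dopamine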
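D2 cells co-treated with compound plus 50 nM dopamine (EC20) for 90 min at 37 deg C to detect potentiation. Beta-arrestin recruitment was read as enzyme-fragment luminescence after 1 h at ambient temperature. Full response was set by 57 uM dopamine.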
An asterisk follows results filed as active; ? = inconclusive; . = not tested or not shown; [ ] = another dose, or the depositor's remark.

SMILES | TRPV1 PAM | Sfp inh | PINK1 modulator | CtBP-E1A blk | D2 ag | Six1-Eya2 blk | D2 PAM
COc1ccccc1/C=N/N(C(C)=O)c1nc(-c2ccc(F)cc2)cs1 | 6 | 11% | 9.1% | 0 | -5.6 | 20 | -21
Cc1nc(C)c(C(=O)N(c2ccc(C)c(C)c2)C(C(=O)NCc2ccco2)c2ccccc2)s1 (stereo not given) | -7 | -14% | . | -13 | 1.9 | -7 | 7
Cc1cccc(C)c1NC(=O)C1c2ccccc2OCC(=O)N1Cc1ccco1 (stereo not given) | . | . | -0.5% | 7 | . | 0 | .
CC(NC(=O)c1ccco1)C(=O)N1CC=C(c2ccccc2)CC1 (stereo not given) | . | . | 11% | -12 | 3.2 | 0 | 1
Nc1ncnc(N2CCOCC2)n1 | . | . | 0.3% | -3 | -3.4 | 5 | -5
O=C1CCCN1S(=O)(=O)c1ccc(F)cc1 | -3 | 10% | -0.2% | . | 6.7 | -2 | -14
COc1ccccc1CCC(=O)Nc1ncc(C)s1 | -4 | 11% | 7.3% | -3 | -2.3 | 3 | -9
Cc1ccccc1CNC(=O)CCc1ccccc1 | -7 | 7% | 0.7% | . | 4.2 | 4 | -5
COc1ccc(C(=O)c2ccccc2)cc1 | 9 | 0% | 0.3% | 9 | -4.4 | 17 | -4
S=C(NCc1ccc2c(c1)OCO2)NC1CCN(Cc2ccccc2)CC1 | 4 | 11% | -0.1% | -12 | -1.8 | -18 | -10
O=C(CSc1nnc(-c2cccnc2)o1)OC1CCCCC1 | -12 | 5% | -0.2% | 4 | -1.4 | -3 | -4
O=C(Nc1cccnc1)c1cc(F)c(F)cc1Cl | 6 | 24% | -0.1% | 7 | -1.4 | -2 | 0
COc1cc(CC(=O)OCC(=O)NC2CCCCCC2)cc(OC)c1OC | . | . | -0.2% | 8 | -5.9 | -6 | -5
CS(=O)(=O)Nc1ccc(C2=NN(S(=O)(=O)c3ccccc3)C(c3cccs3)C2)cc1 (stereo not given) | 1 | 8% | 11% | . | -7.4 | -4 | -7
CC1CCN(c2ccc(C(=O)OCC(=O)NCCN3C(=O)CSC3=O)cc2[N+](=O)[O-])CC1 | 3 | 2% | 0.2% | -13 | -2.3 | -25 | -8
Cn1ccsc1=NC(=O)c1ccc(=O)[nH]c1 | 4 | 10% | 0.6% | 4 | 2.5 | 0 | -1
COc1cccc(C2=CC(=O)CCC2)c1 | . | . | -0.8% | 3 | 0.4 | 0 | -3
CCOC(=O)N1CCC(NC(=O)CS(=O)Cc2nc(-c3ccccc3C)oc2C)CC1 (stereo not given) | 12 | -1% | -0.6% | 2 | -1.5 | 0 | -5
O=C(Nc1ccccc1N1CCOCC1)C1CCCCN1S(=O)(=O)c1ccccc1 (stereo not given) | -29 | 1% | -0.7% | 0 | -1.6 | 20 | -3
O=C(Nc1scc(-c2ccccc2)c1C(=O)O)c1ccco1 | -5 | ? | -1.2% | -20 | -1.4 | -25 | 5

Ordered by heavy-atom count (high to low): part of the list above.
SMILES | TRPV1 PAM | Sfp inh | PINK1 modulator | CtBP-E1A blk | D2 ag | Six1-Eya2 blk | D2 PAM
CC1CCN(c2ccc(C(=O)OCC(=O)NCCN3C(=O)CSC3=O)cc2[N+](=O)[O-])CC1 | 3 | 2% | 0.2% | -13 | -2.3 | -25 | -8
O=C(Nc1scc(-c2ccccc2)c1C(=O)O)c1ccco1 | -5 | ? | -1.2% | -20 | -1.4 | -25 | 5
COc1ccccc1CCC(=O)Nc1ncc(C)s1 | -4 | 11% | 7.3% | -3 | -2.3 | 3 | -9
O=C(Nc1cccnc1)c1cc(F)c(F)cc1Cl | 6 | 24% | -0.1% | 7 | -1.4 | -2 | 0

(listing goes on)
SMILES | TRPV1 PAM | Sfp inh | PINK1 modulator | CtBP-E1A blk | D2 ag | Six1-Eya2 blk | D2 PAM
CCN(CC(=O)Nc1c(F)cccc1F)C(=O)c1n[nH]c2ccccc12 | -3 | 6% | -0.5% | 1 | -2.1 | -2 | -13
Cc1ccc(/C=N/NC(=O)c2ccc(-c3ccccc3)cc2)o1 | 2 | 16% | 6.4% | 0 | -1.3 | -10 | -11
c1ccc(CSc2nnc(-c3sccc3-n3cccc3)o2)cc1 | -6 | -11% | 2.2% | -1 | -0.7 | -2 | -6
Cc1nn(C)cc1CN1CCCC(C(=O)c2ccc(-c3ccccc3)cc2)C1 (stereo not given) | 15 | 10% | 1.3% | -8 | -3.9 | -10 | -19
O=c1[nH]c(-c2ccccc2)c(-c2ccccc2)[nH]1 | . | 3% | -0.9% | -9 | -5.9 | -3 | -1
COc1ccc(C)cc1NC(=O)NNC(=O)c1cc2ccccc2cc1O | 8 | -20% | 2.8% | -2 | -0.7 | -3 | -14
N#Cc1nc(COc2ccccc2)oc1N1CCN(c2cccc(Cl)c2)CC1 | 6 | 13% | 0.7% | -3 | -1.0 | -1 | -9
CCCc1nc2ccccc2c(=O)n1CC(=O)c1ccccc1 | -13 | 7% | 8.4% | . | -2.7 | 0 | -7
CC[C@@]1(c2ccccc2C)C(=O)N(C(=O)OC)N1C(=O)OC | -9 | ? | 1.1% | 6 | -0.4 | 3 | -40
O=C(NCc1ccco1)c1scc2c1OCCO2 | 14 | -3% | -0.2% | 7 | -0.8 | 4 | -20
CCOC(=O)C1C(=O)C=C(c2ccccc2)CC1c1ccccc1 (stereo not given) | . | . | 1.2% | 8 | 0.3 | 0 | 3
CCN(CC)c1nc(C)c(C(C)=O)cc1C#N | 6 | -15% | 2.7% | 2 | -0.8 | -2 | -4
Cc1ccc(S(=O)(=O)N2C[C@H]3C(=O)C[C@@H]4C(=O)N(c5ccccc5)C(=O)[C@@H]4[C@@H]3C[C@@H]2c2ccccc2)cc1 | . | . | 0.3% | -12 | -3.2 | 7 | -7
CCCN(CC(=O)Nc1ccc(F)c(F)c1F)C(=O)c1cc(S(=O)(=O)N(C)C)ccc1N1CCCC1 | . | . | 1.4% | -11 | 2.6 | -8 | -1
CC[C@@]12C(=O)N(c3ccccc3)C(=O)N1[C@H](c1ccc(Br)cc1)[C@@H]1C(=O)N(C(C)(C)C)C(=O)[C@@H]12 | -20 | . | 2.3% | . | -5.5 | 10 | -13
CCC1(C)Cc2c(sc3c2c(=O)n(-c2ccccc2)c(=O)n3C)CO1 (stereo not given) | -11 | 9% | 1.1% | 0 | -2.1 | -1 | 2
O=C(Nc1ccc(-c2csc(Nc3cccc(C(F)(F)F)c3)n2)cc1)c1cccc(C(F)(F)F)c1 | -21 | 28% | 0.8% | . | -1.1 | 0 | -12
CCN(CC)S(=O)(=O)c1ccc(OC)c(NC(=O)c2cccc([N+](=O)[O-])c2C)c1 | . | . | 0.7% | -4 | -1.8 | -6 | -2
O=C(CN1CCN(C(=O)C2CCN(C(=O)/C=C/c3ccccc3)CC2)CC1)Nc1ccccc1Cl | -3 | . | -0.1% | -19 | -1.7 | -2 | 3
CCNS(=O)(=O)c1ccc(OCCNS(C)(=O)=O)cc1 | -1 | 3% | 5.3%[38.3 µM] | -8 | -2.7 | 4 | 9
COCc1c(C(=O)N/N=C(/C)c2ccccc2)nnn1-c1nonc1N | 3 | 15% | 1.7% | -2 | -5.3 | 3 | -3
CCCc1cc(=O)[nH]c(Nc2cc(OC)ccc2OC)n1 | -2 | 5% | -0.6% | 9 | -1.8 | 3 | -39
CC(C)c1nc(SCC(=O)c2ccccc2)c2c(=O)n(C)c(=O)n(C)c2n1 | -1 | 8% | 1.7% | 27 | 3.2 | 21 | -1
Cc1cccc(N2C(=O)C(Cc3ccccc3)NC2=S)c1 (stereo not given) | -2 | 16% | -1.0% | 11 | -0.7 | 12 | -11
Cn1cnnc1SC(C(=O)Nc1cc(Cl)cc(Cl)c1)c1ccccc1 (stereo not given) | -9 | -12% | -0.2% | 2 | -0.4 | 3 | 7
COc1cccc(CNC(=O)CCC2CCCN(C(=O)CCc3c(C)noc3C)C2)c1 (stereo not given) | 4 | 13% | -1.2% | 0 | -0.7 | 17 | 1
Cc1cn(-c2cccnc2)c(C)c1CNC[C@H]1O[C@@H](n2cnc3c(N)ncnc32)[C@H](O)[C@@H]1O | . | . | 2.0% | 3 | -2.8 | -1 | -1
COc1ccc(C(CNC(=O)c2ccc(C)c(S(=O)(=O)Nc3ccccc3OC)c2)N2CCCC2)cc1 (stereo not given) | -1 | 4% | 1.4% | -1 | -3.1 | -5 | -23
CC(=O)N1N=C(c2ccccc2)OC1c1cccnc1 (stereo not given) | -3 | 17% | 0.6% | 9 | -1.5 | 3 | -8
Cc1nnc(Sc2nc3c(c(=O)n(C)c(=O)n3C)n2Cc2ccc(Cl)cc2)s1 | 0 | 3% | -0.7% | 1 | 0.1 | 15 | 14
COc1ccc(C2(O)CN(c3ccc(C)cc3)C3=[N+]2CCCC3)cc1 (stereo not given) | -8 | 20% | -1.8% | -15 | -3.9 | -7 | -14
CN(C)S(=O)(=O)c1cccc(NC(=O)Cn2cnc3ccccc3c2=O)c1 | ? | -1% | 7.5%[38.3 µM] | -6 | -0.4 | -2 | -11
CCOC(=O)c1sc2nc(NC(=O)C3CC3)sc2c1C | 0 | -9% | 1.5% | 0 | -4.5 | 2 | -6
O=[N+]([O-])c1ccccc1S(=O)(=O)c1ccccc1 | 2 | 1% | 0.9% | 1 | 1.5 | 3 | -5
O=c1ccc(/C=C/c2ccccc2)nn1Cc1ccc(Cl)cc1Cl | 7 | -24% | 8.4% | 1 | -10.0 | 13 | -11
Cc1cc(NC(=O)c2c(Br)cnn2C)no1 | 0 | 6% | -1.0% | 8 | -0.1 | 8 | 4
Nc1c(N(Cc2ccccc2)C(=O)COc2ccc([N+](=O)[O-])cc2)c(=O)[nH]c(=O)n1Cc1ccccc1 | . | . | -2.2% | 1 | 14 | 4 | -2
COc1cccc(C(O)c2nc3ccccc3n2C(C)C)c1 (stereo not given) | 13 | 18% | . | -6 | -4.2 | -5 | 13
Nc1nc(SCC(=O)Nc2ccc(Cl)cc2)[nH]c(=O)c1-c1ccccc1 | -3 | 18% | -0.2% | -5 | -1.6 | 0 | -29
CCOCCCNC(=O)c1ccc2c(c1)OCO2 | -1 | 3% | 1.2% | 7 | -1.7 | 6 | 26
O=S(=O)(NCCc1csc(-c2ccccc2)n1)c1ccc2c(c1)OCCO2 | 7 | -11% | -0.9% | -2 | -1.0 | -11 | -14
CC1(C)C2([N+](=O)[O-])CN3CC1([N+](=O)[O-])CN(C2)C3C(O)C(O)C(O)CO (stereo not given) | 27 | 10% | -0.8% | -9 | 0.9 | 2 | -1

Assay outcomes from PubChem BioAssay.
